# Cruzain inh Det – blocks cruzain activity in presence of Triton detergent | P25779 | purified cruzain, Z-FR-AMC fluorescence, 0.01% Triton | Potency, µM, for the others: max response, negative = inhibition, hits mostly inhibitors | actives 0.43% (n = 200,000) | AID 1478; active = well fitted curve in the direction sought with a large enough effect; inconclusive = small, poorly fitted or top-dose-only effect, or another doubt; inactive = no such curve, though single readings can be large; an effect the other way counts as inactive or inconclusive;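 note: plate controls were neutral wells for no effect and buffer without enzyme for full effect; nearly all actives have a fitted effect of over 40% in size; top concentration of the series not given in the record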
# Target sequence (P25779 123-467 limits assumed): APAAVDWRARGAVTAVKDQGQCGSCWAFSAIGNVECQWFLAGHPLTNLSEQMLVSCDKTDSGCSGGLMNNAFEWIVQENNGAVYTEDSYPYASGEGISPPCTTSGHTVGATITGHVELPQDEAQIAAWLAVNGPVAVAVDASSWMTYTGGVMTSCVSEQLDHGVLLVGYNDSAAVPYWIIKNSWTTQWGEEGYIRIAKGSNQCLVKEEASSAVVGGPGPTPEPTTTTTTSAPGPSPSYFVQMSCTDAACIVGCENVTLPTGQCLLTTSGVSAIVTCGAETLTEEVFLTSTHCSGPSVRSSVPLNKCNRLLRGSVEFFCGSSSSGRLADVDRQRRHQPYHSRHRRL
#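 Sodium acetate buffer (100 mM, pH 5.5) containing 5 mM DTT and 0.01% Triton X-100 hosted 1.5 nM cruzain and test compound for 15 min at room temperature. Cleavage of 2 uM Z-FR-AMC was then tracked by fluorescence.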
# Cruzain inh noDet – cruzain (T. cruzi) inhibition without detergent. P25779. purified cruzain, Z-FR-AMC fluorescence, no detergent. Potency, µM, without a hit: max response, negative = inhibition, hits mostly inhibitors. actives 2.3% (n = 200,000); active = well fitted curve in the direction sought with a large enough effect; inconclusive = small, poorly fitted or top-dose-only effect, or another doubt; inactive = no such curve, though single readings can be large; an effect the other way counts as inactive or inconclusive;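 note: plate controls were enzyme without inhibitor for no effect and buffer without enzyme for full effect; nearly all actives have a fitted effect of over 40% in size; top concentration of the series not given in the record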
#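 Detergent-free condition (0.00005% Triton X-100) in acetate buffer pH 5.5 with DTT. 1.5 nM enzyme and compound were pre-mixed 15 min, then 2 uM Z-FR-AMC substrate added; reaction progress from fluorescence change between first and third reads (60 s).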
# Lassa entry inh – Lassa virus entry inhibition | Potency, µM (top dose mostly 37.9 µM), for the others: at the highest dose activity change, negative = inhibition, actives largely listed as inhibitors | Lassa virus pseudotype entry inhibition, cell reporter; control for the full effect not named in the record | AID 540256 | actives 1.2% (n = 300,000); active means well fitted inhibition curve with a large enough effect; inconclusive means small, poorly fitted or top-dose-only effect, or effect the other way; inactive means flat fitted curve, though single readings scatter; tested in HEK293 cells; note: % is set by controls: 0 for no effect and ±100 for the full control effect; nearly all actives have a fitted effect of over 50% in size; luciferase read-out
# MARV entry inh – blocks Marburg virus binding to or entry into cells; AID 540276; Marburg virus pseudotyped entry inhibition, cell reporter; control for the full effect not named in the record; about a third of the inactives were read at about 46 µM; Potency, µM (highest dose often 37.8 µM), without a hit: top-dose activity change, negative = inhibition, usual class: inhibitors; actives 1.8% (n = 300,000); active = well fitted inhibition curve with a large enough effect; inconclusive = small, poorly fitted or top-dose-only effect, or effect the other way; inactive = flat fitted curve, though single readings scatter; tested in HEK293 cells; about a fifth of its hits are not listed in these tables; note: % is set by controls: 0 for no effect and ±100 for the full control effect; luciferase read-out
# StopGo reporter – lowers the luciferase signal of an FMDV 2A StopGo reporter; human cells with a luciferase reporter of 2A StopGo recoding; control for the full effect not named in the record; Potency, µM (doses to about 57.9 µM), for inactives: top-dose signal change, negative = less light; actives 1.2% (n = 410,000); active = well fitted falling curve with a large enough effect; inconclusive = small, poorly fitted or top-dose-only effect; inactive = no such curve, though single readings can be large or run the other way; tested in HEK293T cells; note: % is set by controls: 0 for no effect and ±100 for the full control effect; nearly all actives have a fitted effect of over 45% in size; luciferase light after 4 h
# SARS PLpro yeast – inhibitors of SARS-CoV papain-like protease in yeast. S. cerevisiae expressing SARS-CoV PLpro, growth rescue; control for the full effect not named in the record. Potency, µM (highest dose often 32.9 µM), for inactives: at the highest dose activity, positive = growth rescue. actives 0.19% (n = 330,000). AID 485353; note: 0% is about no effect; nearly all actives have a fitted effect of over 55% in size; growth read by luminescence after 48 h
# NS1 inh – inhibitors of influenza NS1 protein function; S. cerevisiae slowed by influenza A NS1, growth recovery by OD600; Potency, µM (top dose mostly 46.1 µM), inactives show top-dose activity, positive = more growth; actives 0.4% (n = 270,000); note: actives are rising curves; nearly all actives have a fitted effect of over 50% in size
#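 Read-out: OD600 growth recovery of NS1-expressing budding yeast. Cells grown overnight at 30C in -URA glucose medium, washed, resuspended and diluted 1:100 in 2% galactose assay medium, pH 6.0. Same strain lacking NS1 served as positive control.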
# RE007 growth inh – less growth of the S. pombe RE007 Vpr strain. S. pombe RE007 Vpr strain, BacTiter-Glo ATP luminescence, 24 h; control for the full effect not named in the record. Potency, µM (titrated, usually from 92.2 µM), inactives show at the highest dose activity change, negative = less growth. actives 0.21% (n = 360,000); active = well fitted falling curve with a large enough effect; inconclusive = small, poorly fitted or top-dose-only effect; inactive = no such curve, though single readings can be large or run the other way;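 note: % is set by controls: 0 for no effect and ±100 for the full control effect; nearly all actives have a fitted effect of over 50% in size; the assay follows cell death caused by Vpr and the record does not say whether a fall means rescue or toxicity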
#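 Fission yeast strain RE007, carrying one chromosomally integrated HIV-1 vpr copy, was seeded at OD 0.01 in PMG+AL medium with 23 nL pinned compound. After 24 h at 30 °C and 99% humidity, viability was read by BacTiter-Glo luminescence.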
# Active calls of the source: *; ? = inconclusive; nt = not tested or not shown; & = joins results of further samples; [ ] = another dose, or the depositor's remark. Unless noted, calls come from the whole dose curve; as a rule, active means well fitted rising curve with a large enough effect; inconclusive means small, poorly fitted or top-dose-only effect; inactive means no such curve, though single readings can be large or run the other way. Potency is the fitted concentration of half-maximal effect.
SMILES,Cruzain inh Det,Cruzain inh noDet,Lassa entry inh,MARV entry inh,StopGo reporter,SARS PLpro yeast,NS1 inh,RE007 growth inh
O=C(CCS(=O)(=O)c1ccc(Cl)cc1)Nc1nc(-c2ccncc2)cs1,nt,nt,nt,nt,?,1%,10%,2%
O=C(CCCN1C(=O)/C(=C\c2cccs2)SC1=S)Nc1ccc(C(=O)O)cc1,nt,nt,?,5%[46.1 µM],-5%,2%,nt,-4%
O=C(N/N=C\c1ccc([N+](=O)[O-])s1)c1cncc(Br)c1,-0.6%,-14%,2.9µM*,2.6µM*,?,-42%,-41%,4%
O=C(NCc1ccncc1)C(F)(F)C(F)(F)C(=O)NCc1ccncc1,2.7%,-6%,11%,0%,-12%,2%,8%,-21%
COc1ccc(-n2c(O)c(/C=N/NS(=O)(=O)c3ccc(C)cc3)c3ccccc3c2=O)cc1OC,-10%,?,?,-15%,-8%,1%,10µM*,4%
O=C(Nc1ccc(Cl)cc1)c1ccc2snnc2c1,nt,nt,nt,nt,34%[activator],-5%,-16%,-8%
COc1ccccc1N1CCN(CCCNC(=O)Nc2ccccc2C)CC1,-0.7%,-1%,5%,-5%,-14%,-6%,-10%,21%
COCCSc1ccccc1C(=O)Nc1cccnc1,-0.8%,-9%,7%,-1%[46.1 µM],-24%,-2%,-4%,?
CCN(CC(=O)Nc1ccc(NC(C)=O)cc1)C(=O)c1cn(-c2ccccc2)nc1-c1cccs1,nt,nt,-33%,-52%,7%,1%,nt,6%
COC(=O)c1sc(N)c(C(=O)OC)c1Cn1ncc(Cl)c(Cl)c1=O,nt,nt,?,?,?,11%,2%,1%
Cc1ccc(C2=NS(=O)(=O)N(C)C(C(=O)Nc3ccc(F)cc3F)=C2)cc1,nt,nt,nt,nt,-7%,-7%,6%,0%
C=CCNc1nc2ccccc2nc1NS(=O)(=O)c1ccc(F)cc1,nt,nt,nt,nt,-1%,-5%,-32%,2%
Cc1cc(C)cc(NC(=O)Cn2c(SCc3cc(C)ccc3C)nc3ccncc32)c1,-3.0%,-26%,?,-19%,nt,7%,2%,nt
COc1cc(/C=N/NC(=O)c2c(-c3c(Cl)cccc3Cl)noc2C)ccc1OCC(N)=O,nt,nt,4%[46.1 µM],-11%[46.1 µM],17%,5%,-13%,11%
CCC(=O)Nc1cccc(NC(=O)c2ccccc2Br)c1,2.0%,0%,?,?,-15%,-5%,8%,-2%
Cc1ccn2c(C(=O)CSc3ccccc3)c(C)nc2c1,nt,nt,nt,nt,34%[activator],-1%,-5%,0%
CC(C)c1ccc(OCC(O)CN2CCCC2)cc1 (stereo not given),nt,nt,-5%[46.1 µM],?,-8%,1%,15%,-9%
CCc1nnc(NC(=O)C2CCCN(c3nc4ccccc4s3)C2)s1 (stereo not given),2.6%,23%,-3%,2%,-25%,-2%,-5%,-3%
O=C(/C=C/c1ccccc1Cl)N1CCC(c2nc3ccccc3o2)CC1,-7.7%,-16%,11%[46.1 µM],?,0%,nt,nt,nt
CCC(Sc1nc2nccnc2c(=O)n1Cc1ccc(F)cc1)C(=O)NC1CCCCC1 (stereo not given),1.2%,-4%,-4%[46.1 µM],nt,-10%,nt,nt,nt

# Continued, overlapping the part above by 3 compounds.
SMILES,Cruzain inh Det,Cruzain inh noDet,Lassa entry inh,MARV entry inh,StopGo reporter,SARS PLpro yeast,NS1 inh,RE007 growth inh
CCc1nnc(NC(=O)C2CCCN(c3nc4ccccc4s3)C2)s1 (stereo not given),2.6%,23%,-3%,2%,-25%,-2%,-5%,-3%
O=C(/C=C/c1ccccc1Cl)N1CCC(c2nc3ccccc3o2)CC1,-7.7%,-16%,11%[46.1 µM],?,0%,nt,nt,nt
CCC(Sc1nc2nccnc2c(=O)n1Cc1ccc(F)cc1)C(=O)NC1CCCCC1 (stereo not given),1.2%,-4%,-4%[46.1 µM],nt,-10%,nt,nt,nt
CCOC(=O)Cc1csc(SC(C)C(=O)NC2CCCCC2C)n1 (stereo not given),nt,nt,18%,?,0%,-1%,nt,-1%
COc1ccc(Cc2nc3ccc(S(=O)(=O)N4CCOCC4)cc3[nH]2)cc1OC,1.2%,-4%,-10%,-9%,-28%,?,13%,-6%
CC1(C)CC(NC(=S)Nc2ccc(S(N)(=O)=O)cc2)CC(C)(C)N1,nt,nt,-12%,26%[46.1 µM],5%,2%,nt,35%
CC1CCCCC1NC(=O)CCc1nc2sc3c(c2c(=O)[nH]1)CCCC3 (stereo not given),nt,nt,2%,-5%,1%,-2%,nt,13%
O=C(NCCC1CCCCN1S(=O)(=O)c1ccccc1)C(=O)NCc1ccccc1 (stereo not given),nt,nt,2%,?,-18%,3%,nt,-3%
CCOC(=O)N1CCC(N2C(=O)c3ccccc3C2Nc2ccc3c(c2)OCCO3)CC1 (stereo not given),6.7%,6%,nt,nt,2%,0%,-40%,13%
CCOC(OCC)c1nc(N)[nH]c(=O)c1CCCCc1ccccc1,nt,nt,-25%[46.1 µM],-13%[46.1 µM],?,nt,nt,-4%
O=C(CN1C(=O)c2cccc3cccc1c23)N1CCN(Cc2ccc3c(c2)OCO3)CC1,-9.3%,3%,?,-23%&-23%,?,?,-6%,-4%
O=C(NN1c2ccccc2CCc2ccccc21)c1ccccc1Br,2.4%,?,-11%,?,-21%,-6%,12%,14%
N=c1n(CCO)c2ccccc2n1Cc1ccccc1,3.5%,13%,3%,?,-33%,15%,2%,-16%
CCOC(=O)Nc1ccc(S(=O)(=O)Nc2cc(C)nc(C)n2)cc1,2.5%,6%,?,-1%,47%[activator],0%,0%,-1%
CCOc1ccc(S(=O)(=O)N(CC(=O)NCCSc2ccc(C)cc2)c2ccccc2)cc1,0.6%,5%,10%[46.1 µM],-29%[46.1 µM],0%,nt,nt,nt
NC(=O)c1cnn(-c2cc(Oc3ccccc3)ncn2)c1N,nt,nt,?,?,24%,-1%,-3%,-5%
O=C(CSc1nccc(-c2ccc(Br)cc2)n1)NCCc1ccccc1,-0.8%,-4%,-3%,-3%,nt,3%,2%,7%
Cc1onc(-c2ccc(Cl)cc2Cl)c1C(=O)/C=C/N(C)C,nt,nt,nt,nt,-22%,0%,-1%,-9%
Cc1ccc(CNC(=O)C(=O)NCC2OCCN2C(=O)c2ccc3c(c2)OCO3)cc1 (stereo not given),nt,nt,?,?,-8%,-2%,nt,11%
COCCNC(=O)C(c1ccncc1)N(C(=O)c1sc(C)nc1C)c1cccc(C)c1 (stereo not given),nt,nt,nt,nt,5%,0%,-5%,14%
Cc1ccc(C(=O)N/N=C/C=C/c2ccccc2)o1,nt,nt,-4%[46.1 µM],23%[46.1 µM],26%,-2%,nt,6%
COc1ccc(NC(=O)C2C3C=CC(O3)C2C(=O)O)cc1 (stereo not given),nt,nt,nt,nt,5%,-20%,5%,-5%
O=C(Nn1c(SCc2ccc(F)cc2)nc2ccsc2c1=O)c1ccccc1,-1.8%,-7%,1%,21%,7%,-37%,21%,26%
COc1ccc(NC(=O)CS(=O)(=O)c2ccccc2Cl)cc1,nt,nt,10%[46.1 µM],16%[46.1 µM],95%[activator],1%,-4%,-3%
COc1ccc(C(=O)N=c2sccn2C)cc1,nt,nt,-2%[46.1 µM],?,50%[activator],-1%,nt,-19%
COC(=O)c1ccccc1NC(=O)CN(C)S(=O)(=O)c1ccc(OC)cc1,-2.0%,2%,-29%,-15%,0%,6%,-20%[9.22 µM],-11%
CCOc1cc(C(=S)N2CCOCC2)ccc1OS(=O)(=O)c1ccc(C)cc1,nt,nt,-3%[46.1 µM],-16%[46.1 µM],15%,-1%,4%,1%
CCCCN(C(=O)NC(=O)Nc1cccc(C)c1C)S(C)(=O)=O,-8.5%,2%,?,5%,nt,-3%,-12%,-11%
CCCn1c2ccc(F)cc2c2nnc(SCCN3CCCCC3)nc21,2µM*,2µM*,?,?,-20%&-9%,0%,-6%,-12%
CCOC(=O)c1sc(NC(=O)c2ccc(S(=O)(=O)N3CCOCC3)cc2)nc1-c1ccccc1,-6.0%,-4%,nt,-3%,-59%,19%,24%,-17%
Cn1c(=O)n(Cc2ccccc2F)c(=O)c2c1nc1n2CCN1Cc1ccco1,nt,nt,nt,2%[46.1 µM],-2%,1%,nt,4%
COc1ccc(CNC(=O)CSc2nnc3nc(C)cc(C)n23)cc1OC,nt,nt,30%[46.1 µM],-6%[46.1 µM],8%,2%,-1%,-15%
CC(C)(C)c1ccc(NC(=O)c2ccsc2)cc1,nt,nt,?,?,-4%,-5%,-54%,?
CCN(CC)c1ccc(N=Cc2c(O)n(-c3ccc(OC)cc3)c(=O)[nH]c2=O)cc1,8.5%,5%,?,2%,-22%,-1%,0%,-2%
CC(=O)Oc1ccccc1N(C(C)=O)S(=O)(=O)c1ccc2ccccc2c1,nt,nt,12%,?,13%,-1%,-4%,2%
CCCC(=O)Nc1cccc2c1CCCC2,9.9%,5%,18%,26%,-12%,-2%,5.6µM*,52%
COCCNC(=O)/C=C/c1c(Cl)cccc1Cl,-3.7%,-10%,7%,8%,-2%,5%,-12%,11%
Cc1ccc2c(c1)c1c(c(=O)n(-c3cccc(Cl)c3)c(=O)n1CC(N)=O)n2C,-0.2%,17%,-6%[46.1 µM],nt,-23%,nt,nt,nt
Cc1ccc(CNC(=O)CS(=O)(=O)c2cccc3nsnc23)cc1,-3.7%,12%,?,nt,8%,nt,nt,nt
COc1ccccc1N1CCN(CCCNC(=O)c2nnc(Cc3c(F)cccc3Cl)o2)CC1,0.5%,-17%,-2%[46.1 µM],-1%[46.1 µM],-16%,nt,nt,nt
CCN(CC)C(=O)CSc1nnc(SC(C)C(=O)NC2CC2)s1 (stereo not given),nt,nt,-5%,-22%,-8%,5%,nt,-18%
Cc1ccc(-c2ccc(=O)n(CC(=O)NCCCN3CCCCC3)n2)cc1,-0.3%,-8%,5%,-13%,nt,3%,3.5µM*,1%

# Source: PubChem BioAssay
